GIV-Gai inh = GIV-Galpha-i interaction inhibition; hit rate 0.42% among 210,000; percent of control (FP), % (concentration not given with the values); AID 1224905; Galpha-i3/FITC-GIV peptide fluorescence polarization, 90 min; hits give low values; scaled: aluminum fluoride 0%, vehicle 100%; P08753;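 active = replicate mean at 85% of control or lower, very high polarization wells dropped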;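 note: wells of about 15 µL received 100 nL stock; the first replicate is given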
Target sequence (P08753 whole entry, looked up): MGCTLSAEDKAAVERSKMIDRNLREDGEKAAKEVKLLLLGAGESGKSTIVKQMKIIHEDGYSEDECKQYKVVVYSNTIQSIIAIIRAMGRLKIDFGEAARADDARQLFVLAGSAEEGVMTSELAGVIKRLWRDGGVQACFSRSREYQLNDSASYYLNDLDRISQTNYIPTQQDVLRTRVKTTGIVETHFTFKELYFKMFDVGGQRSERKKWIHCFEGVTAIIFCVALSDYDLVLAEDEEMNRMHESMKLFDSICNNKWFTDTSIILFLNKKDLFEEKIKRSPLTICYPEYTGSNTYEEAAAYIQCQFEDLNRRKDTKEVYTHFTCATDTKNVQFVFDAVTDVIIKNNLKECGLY
Starred values were filed as active, the others as inactive. This is a subset; rates above refer to the full screens.

GIV-Gai inh | Compound
110 | CCOc1ccc(C2(O)CN(c3cccc(C)c3)C3=[N+]2CCCC3)cc1 (centres undefined)
103 | Cc1ccc(-c2nc(CN3CCCC(C(=O)NCCc4ccccc4)C3)no2)cc1 (centres undefined)
105 | O=C1COc2ccc(S(=O)(=O)NCC3CCCO3)cc2N1Cc1noc(C2CCC2)n1 (centres undefined)
106 | COc1cc(-c2nc(C=Nc3ccc(Cl)c([N+](=O)[O-])c3)c(O)o2)cc(OC)c1OC
109 | O=C1CCCC2=C1C(c1ccc(-c3ccccc3)cc1)Nc1ccc3ncccc3c12 (centres undefined)
109 | COC(=O)c1ccc(N2C(=O)CC(NCc3ccc(OC)c(OC)c3)C2=O)cc1 (centres undefined)
110 | N#Cc1c(-c2cccc(Br)c2)c(C#N)c2nc3ccccc3n2c1N
112 | Cc1ccc2c(c1)NC(=O)c1cc(S(=O)(=O)N3CCCCC3)c(Cl)cc1O2
113 | FC(F)(F)C(F)(F)C1=NC(C(F)(F)F)(C(F)(F)F)N=C(c2cc(Cl)cc(Cl)c2)O1
108 | O=C(Nc1ccc(Br)cc1)c1cc(S(=O)(=O)N2CCN(c3ccccc3F)CC2)ccc1F
103 | CC1=C(c2ccc(F)cc2)S(=O)(=O)N=C1N1CCCN(C(=O)NC(C)C)CC1
98 | Cc1ccc(C2Oc3ccccc3C3=C2C(c2ccc(N(C)C)cc2)n2ncnc2N3)cc1 (centres undefined)
114 | COc1cc(/C=c2\sc3nc4ccccc4n3c2=O)ccc1OCc1ccccc1F
110 | CCc1ccc(N=CC23c4ccccc4C(c4ccccc42)C2C(=O)N(c4ccccc4Cl)C(=O)C23)cc1 (centres undefined)
112 | COc1ccc2oc(-c3noc(COc4ccc(F)cc4)n3)c(C)c2c1
117 | Cc1cc(=O)oc2c3c(ccc12)O/C(=C\c1ccc(O)cc1)C3=O
104 | CC(C)c1nc(CN2CCCCCCC2)cc(=O)[nH]1
89 | CCN1C(=O)c2cccc3c(NC(=O)c4ccc(S(=O)(=O)N5CCCC5)cc4)ccc1c23
101 | COc1ccc(NC(=O)c2cccc(-c3nc(-c4ccc(F)cc4)no3)c2)c(OC)c1
100 | CCc1ccc(S(=O)(=O)c2cnc(N3CCc4ccccc4C3)nc2N)cc1
118 | O=C(N/N=C/c1ccc(Br)cc1)C1C(c2ccccc2)C(C(=O)N2CCOCC2)C1c1ccccc1 (centres undefined)
111 | Cc1cc(=O)oc2c3c(ccc12)O/C(=C/c1cc(Br)cc(Br)c1O)C3=O
105 | Cc1c(Br)c([N+](=O)[O-])nn1CC(=O)Nc1ccc(C(F)(F)F)cc1[N+](=O)[O-]
101 | COc1ccc(Cl)cc1NC(=O)Cn1nc(C(=O)Nc2ccccc2)ccc1=O
99 | Cc1cccc(NC(=O)N2CCCC2c2c(C)noc2C)c1C (centres undefined)
104 | COc1ccc(-c2cc(C(=O)N3CCCC3c3c(C)noc3C)no2)cc1 (centres undefined)
100 | CC1CCN(C(=O)C2(c3ccc(NS(C)(=O)=O)cc3)CCCCC2)CC1
109 | O=C(Nc1cc(-c2ccsc2)no1)C1CCC1
104 | Clc1ccc(Nc2ncnc3ccc(Br)cc23)cc1
105 | CSc1ccc(NC(=O)c2cc3c(s2)CN(C2CC2)C3)cc1
110 | O=C1C2C3c4ccccc4C(c4ccccc43)C2C(=O)N1c1ccc(F)cc1 (centres undefined)
108 | CC(C)(C)C(=O)[C@H]1[C@H](c2ccccc2F)C(C#N)(C#N)[C@@H]2c3ccccc3C=CN21
106 | COCCCN1CCc2nc(SCc3ccc(F)cc3)[nH]c(=O)c2C1
99 | Cc1csc(-c2cc(S(=O)(=O)NCc3ccc(Br)cc3)c(C)s2)n1
104 | Cn1c(=O)n(CC(=O)Nc2ccc(F)c(Cl)c2)c(=O)c2ccccc21
109 | Cc1ccc(-n2c(=S)sc3c(=O)n(-c4ccccc4C)c(=S)[nH]c32)cc1C
102 | O=C(NCCCc1ccccc1)c1c(O)c2c3c(sc2[nH]c1=O)CCCC3
102 | Cc1nn(-c2cccc(F)c2)c2sc(C(=O)OCCOc3ccccc3)cc12
112 | CCOc1ccccc1NC(=O)c1c(NC(=O)c2ccc(Br)cc2)sc2c1CCCCC2
109 | CC1(C)CC(=O)C2=C(C1)NC1=C(C(=O)c3ccccc31)C2c1cc(Br)ccc1O (centres undefined)
119 | O=C(Nc1ccc(S(=O)(=O)N2CCCCC2c2cccnc2)cc1)c1ccccc1Cl (centres undefined)
113 | Cc1cccc(NC(=O)CSC2=C(C#N)C(c3ccc(Cl)cc3Cl)CC(=O)N2)c1C (centres undefined)
117 | CCC(=O)Nc1ccc(Nc2nc(Cl)nc(Nc3ccc(NC(=O)CC)cc3)n2)cc1
102 | CN(CCc1noc(C(=O)NCc2ccccc2)n1)C(=O)COc1ccccc1
261 | C=CCN1C(=O)C2(NC(=O)c3c(sc(C)c3C)N2)c2ccccc21 (centres undefined)
98 | CCCc1cc(C2CCCN2Cc2cccc(OCC)c2O)no1 (centres undefined)
109 | CCOc1cc(C2Nc3ccc4ccccc4c3C3=C2C(=O)CC(C)(C)C3)ccc1OCc1ccc(Cl)cc1Cl (centres undefined)
103 | CCn1c(SC)nnc1-c1nn(C)c2c1CN(C(=O)C1CCC1)CC2
106 | O=C(c1ccc2cccc(O)c2n1)N1CCN(c2ccccn2)CC1
108 | Cc1sc2nc(-c3ccc(Cl)cc3)oc(=O)c2c1C
106 | O=C(Nc1cccc(O)c1)c1cc2n(n1)C(C(F)(F)F)CC(c1ccc(F)cc1)N2 (centres undefined)
99 | Cc1oc(C2CCN(C(=O)C3CCCCC3)CC2)nc1C(=O)N(C)C
100 | Cc1ccc(S(=O)(=O)N2CCC(c3noc(-c4ccccc4)n3)CC2)cc1C
98 | O=C(Nc1cnn(-c2ncc(N3CCCC3)cn2)c1)C1CCCC1
107 | CCOC(=O)c1[nH]c(C)c(CCC(=O)N2CCCC(C(=O)NCCN(C)C3CCCCC3)C2)c1C (centres undefined)
107 | N#Cc1c(C(F)(F)F)cc(-c2cccs2)nc1SCC(=O)Nc1ccc([N+](=O)[O-])cc1

Some of these compounds in order of count of non-hydrogen atoms, lowest first:
GIV-Gai inh | Compound
98 | O=C(Nc1cnn(-c2ncc(N3CCCC3)cn2)c1)C1CCCC1
100 | Cc1ccc(S(=O)(=O)N2CCC(c3noc(-c4ccccc4)n3)CC2)cc1C
106 | O=C(Nc1cccc(O)c1)c1cc2n(n1)C(C(F)(F)F)CC(c1ccc(F)cc1)N2 (centres undefined)

Next part:
GIV-Gai inh | Compound
102 | O=C(Cn1nc2nc(N3CCCC3)ccn2c1=O)N1CCc2ccccc21
104 | O=C(c1ccc(-c2cc(NC3CCCCC3)ncn2)cc1)N1CCCC1
109 | COc1cccc(C2CC(c3cccs3)=NN2C(=O)CSc2nnc(CNC(=O)c3ccccc3F)n2C)c1OC (centres undefined)
105 | CCOC(=O)c1c(S(=O)(=O)NCC(=O)Nc2ccccc2F)c(C)n(CC)c1C
99 | Cc1c(C(=O)N2CCN(c3cccc(Cl)c3)CC2)sc2ncn(CC(=O)N3CCCC(C)C3)c(=O)c12 (centres undefined)
113 | C=C1N(CCCCCCCCCCCC)C(=O)OC12CCCCC2
95 | CCCN1C(=O)/C(=c2\sc3n(c2=O)C(c2ccc(OC(=O)c4ccco4)cc2)C(C(=O)OCC)=C(C)N=3)c2ccccc21 (centres undefined)
104 | CC(C)n1c(N2CCN(C(=O)C3CCCO3)CC2)cc(=O)n(C(C)C)c1=O (centres undefined)
109 | O=[N+]([O-])/C(C(Cl)=C(Cl)Cl)=C(/Cl)Sc1ccccc1
110 | COc1ccc(N2C(=O)C(N3C(=O)c4ccc([N+](=O)[O-])cc4C3=O)C2c2ccc(F)cc2)cc1 (centres undefined)
117 | O=[N+]([O-])c1cccc(Cl)c1N1CCN(S(=O)(=O)c2cccc3nsnc23)CC1
110 | Cc1ccc(CN2CCCC2c2cc(C(C)C)on2)s1 (centres undefined)
112 | Cc1ccccc1Cn1nc2c(S(=O)(=O)N3CCc4ccccc4C3)cccn2c1=O
112 | Cc1cccc(-n2ncc3c(N4CCN(c5ccccc5F)CC4)ncnc32)c1
109 | Cc1c(CC(Cl)(Cl)Cl)c2c(n1N(C)C)CC(C)(C)CC2=O
103 | CCC(=O)Nc1ccc(S(=O)(=O)N2CSC[C@@H]2C(=O)NCc2csc(C)n2)cc1
100 | Cc1nn(-c2ccc3nncn3n2)c2c1C(c1cc(Br)ccc1F)CC(=O)N2 (centres undefined)
107 | CSc1nc2c(sc(=S)n2-c2ccccc2C)c2nc3ccccc3n12
104 | Cc1nn(-c2nc3ccccc3n2C)c2c1C(c1ccc(F)cc1)CC(=O)N2 (centres undefined)
106 | Cc1ccc(C(=O)Nc2ccc(-n3c(C)nc4ccccc4c3=O)cc2)cc1Br
109 | Cc1ccccc1C(=O)Nc1cnc2oc(-c3ccc(C(C)C)cc3)nn2c1=O
111 | CCC(C1=Nc2ccccc2C(c2ccccc2)(c2ccccc2)O1)N1CCCCC1 (centres undefined)
107 | CCOC(=O)C1=NN(c2ccc(C)cc2)C2(S1)c1ccccc1C(c1ccc(CC)cc1)=NN2c1ccccc1 (centres undefined)
100 | COc1cc(C2CC(=O)Nc3c2c(C)nn3-c2ccc3nnc(C)n3n2)ccc1O (centres undefined)
106 | CCc1nc(CN2C(=O)COc3ccc(S(=O)(=O)NC(C)(C)C)cc32)no1
106 | CCSc1nnc(-c2nn(C)c3c2CN(S(=O)(=O)c2ccccc2F)CC3)n1C
121 | COc1cc(OC)c(OC)cc1/C=C1\N=C(c2ccc(Br)cc2)OC1=O
100 | CN(C)S(=O)(=O)c1ccc2c(c1)cc(C(=O)NCCCN1CCc3ccccc3C1)n2C
103 | Cc1cccc2sc(NC(=O)NC3CC(=O)N(c4ccc5c(c4)OCCO5)C3)nc12 (centres undefined)
107 | CCN(c1ccccc1)c1nc2nonc2n2c(C)nnc12
115 | Cc1c(O)ccc2c3c(c(=O)oc12)CCCC3
106 | CCCn1nc2ccc(S(=O)(=O)N3CCC(C)CC3)cn2c1=O
99 | Cc1sc(-c2nnc(C3CC3)o2)cc1NS(C)(=O)=O
106 | COC(=O)c1ccc(Nc2nc(-c3ccccc3O)nc3ccccc23)cc1
105 | Nn1cnn2c(SCC(=O)Nc3nnc(SCC(=O)Nc4ccc(Cl)c(Cl)c4)s3)nnc12
129 | Cc1ccc(-c2noc(-c3cn(CC(=O)Nc4c(C)cccc4C)c4nc(C)ccc4c3=O)n2)cc1
109 | CCOCCCn1c(SCc2ccc(C)cc2)nc2ccccc2c1=O
111 | O=S(=O)(c1ccc2c(c1)CCCC2)N1CCCn2nc(-c3ccncc3)cc2C1
104 | O=C(COc1ccc(-c2cnc3ccccc3n2)cc1)NCc1ccccc1
107 | O=C(Nc1ccncc1)c1ccc(N2CC3CC(C2)c2cccc(=O)n2C3)c(NC(=O)c2ccccc2Br)c1 (centres undefined)

Shown in markdown: entries from further up.
| canonical_smiles | GIV-Gai inh |
| --- | --- |
| CCc1nc(CN2C(=O)COc3ccc(S(=O)(=O)NC(C)(C)C)cc32)no1 | 106 |
| CCSc1nnc(-c2nn(C)c3c2CN(S(=O)(=O)c2ccccc2F)CC3)n1C | 106 |
| COc1cc(OC)c(OC)cc1/C=C1\N=C(c2ccc(Br)cc2)OC1=O | 121 |
| CN(C)S(=O)(=O)c1ccc2c(c1)cc(C(=O)NCCCN1CCc3ccccc3C1)n2C | 100 |
| Cc1cccc2sc(NC(=O)NC3CC(=O)N(c4ccc5c(c4)OCCO5)C3)nc12 (centres undefined) | 103 |
| CCN(c1ccccc1)c1nc2nonc2n2c(C)nnc12 | 107 |
| Cc1c(O)ccc2c3c(c(=O)oc12)CCCC3 | 115 |
| CCCn1nc2ccc(S(=O)(=O)N3CCC(C)CC3)cn2c1=O | 106 |
| Cc1sc(-c2nnc(C3CC3)o2)cc1NS(C)(=O)=O | 99 |
| COC(=O)c1ccc(Nc2nc(-c3ccccc3O)nc3ccccc23)cc1 | 106 |
| Nn1cnn2c(SCC(=O)Nc3nnc(SCC(=O)Nc4ccc(Cl)c(Cl)c4)s3)nnc12 | 105 |
| Cc1ccc(-c2noc(-c3cn(CC(=O)Nc4c(C)cccc4C)c4nc(C)ccc4c3=O)n2)cc1 | 129 |
| CCOCCCn1c(SCc2ccc(C)cc2)nc2ccccc2c1=O | 109 |
| O=S(=O)(c1ccc2c(c1)CCCC2)N1CCCn2nc(-c3ccncc3)cc2C1 | 111 |
| O=C(COc1ccc(-c2cnc3ccccc3n2)cc1)NCc1ccccc1 | 104 |
| O=C(Nc1ccncc1)c1ccc(N2CC3CC(C2)c2cccc(=O)n2C3)c(NC(=O)c2ccccc2Br)c1 (centres undefined) | 107 |

New compounds follow.
GIV-Gai inh | Compound
101 | COc1cccc(-n2c(=S)sc3c2nc(SCC#N)n2c4ccccc4nc32)c1
102 | Cc1cc(C2CCCN2Cc2cn[nH]c2-c2ccc(F)cc2)no1 (centres undefined)
105 | Cc1nc(-c2ccc(S(=O)(=O)NCC3CCCO3)cc2)co1 (centres undefined)
101 | CCn1nnc2cc(-c3noc(C4CC(=O)N(c5ccccc5)C4)n3)ccc21 (centres undefined)
105 | O=[N+]([O-])c1ccc(C2=NN(c3ccccc3)C3(S2)c2ccccc2C(c2ccc(Br)cc2)=NN3c2ccccc2)cc1 (centres undefined)
107 | NS(=O)(=O)c1ccc(CCn2c(-c3ccc4ccccc4c3)csc2=Nc2ccc(F)cc2)cc1
108 | CC1CCC2C(=O)N(c3ccc(C(=O)OCC(=O)c4ccc(Cl)c([N+](=O)[O-])c4)cc3)C(=O)C2C1 (centres undefined)
100 | O=C(C1CCN(c2nc3ccsc3c(=O)n2-c2ccccc2)CC1)N1CCN(c2ccccc2)CC1
98 | Cc1ccc(N=c2ssc3c2-c2cc(C)c(C)cc2NC3(C)C)cc1
108 | CCOC(=O)C1Cn2c(nc3c(c2=O)C(C)(C)Cc2ccccc2-3)S1 (centres undefined)
126 | Cc1ccc(Nc2cc(N3CCCCC3)c3noc4c3c2C(=O)c2ccccc2-4)cc1
103 | Cc1ccccc1NS(=O)(=O)c1cc(-c2cc(C(F)(F)F)on2)sc1C
104 | Cc1cc(C2CCCN2C(=O)C(C)(C)C)no1 (centres undefined)
104 | O=c1n(Cc2ccccc2F)nc2c(S(=O)(=O)N3CCCCCC3)cccn12
111 | Cc1cc(C)nc(NC2=NCC(=O)N2c2cc(Cl)cc(Cl)c2)n1
104 | Cc1cccc(CNC2=NCCNC23CCN(S(=O)(=O)c2ccccc2)CC3)c1
103 | CCOC(=O)N1CCN(C(=O)c2sc3ncn(CC(=O)Nc4cccc(C(F)(F)F)c4)c(=O)c3c2C)CC1
